# From PubChem BioAssay
# Vaccinia mCherry = qHTS for Stage-Specific Inhibitors of Vaccinia Orthopoxvirus: mCherry Reporter Primary qHTS. Vaccinia virus mCherry reporter infection, fluorescence; about a quarter of the inactives have no number. Potency, µM (top dose mostly 36.5 µM), without a hit: top-dose activity change, negative = inhibition, hits mostly inhibitors. 0.63% of 310,000 active. AID 720579, 2013; active = well fitted inhibition curve with a large enough effect; inconclusive = small, poorly fitted or top-dose-only effect; inactive = no such curve, though single readings can be large or run the other way; tested in A549 cells; also: nearly all actives have a fitted effect of over 35% in size; inactives centre near -10
# VACV Venus inh = qHTS for Stage-Specific Inhibitors of Vaccinia Orthopoxvirus: Venus Reporter Primary qHTS. Vaccinia virus Venus reporter expression, fluorescence. Potency, µM (top dose mostly 36.5 µM), inactives show at the top dose activity change, negative = inhibition, actives largely listed as inhibitors. 0.46% of 330,000 active; active means well fitted inhibition curve with a large enough effect; inconclusive means small, poorly fitted or top-dose-only effect; inactive means no such curve, though single readings can be large or run the other way; tested in A549 cells; also: nearly all actives have a fitted effect of over 30% in size; inactives centre near -10
# The depositor's hits bear a star; i = inactive; ? = inconclusive; nt = not tested or not shown; & = joins results of further samples; [ ] = dose if it differs, or a comment. % is scaled to controls: 0 for no effect and ±100 for the full control effect; potency is read from the fitted curve at half-maximal effect.
SMILES,Vaccinia mCherry,VACV Venus inh
Cn1c(=O)c2c(nc(Br)n2C/C=N/NC(N)=S)n(C)c1=O,-18%,-29%
COc1ccc(S(=O)(=O)N2CCCOC2CNC(=O)C(=O)NCCCN2CCOCC2)cc1 (configuration not stated),i,-15%
N#Cc1c(N2CCNCC2)nc(-c2ccco2)c2c1CCCC2,-1%,-6%
Cc1ccc(S(=O)(=O)c2c(C)nn(C(C)(C)C)c2OC(=O)C(C)(C)C)cc1,nt,-22%
CCOP(=O)(OCC)C(NC(=O)c1ccccc1)C(Cl)(Cl)Cl (configuration not stated),-16%,-14%
CCc1nn(CC(=O)NCCc2ccc(SC)cc2)c(=O)c2cc3sccc3n12,i,-17%
COC(=O)c1ccc(NC(=O)c2cccc(N3C(=O)C4C5C=CC(C6CC56)C4C3=O)c2)cc1 (configuration not stated),-16%,-15%
CCOC(=O)N1CCN(C(=O)CS(=O)(=O)c2cn(Cc3ccccc3C)c3ccccc23)CC1,-11%,-5%
O=C(Oc1ccc(Br)cc1C(=S)N1CCCC1)c1ccccc1F,-26%,-1%
CCc1cccc(NC(=O)CCCn2c(=O)[nH]c3ccsc3c2=O)c1,-29%,-8%
CCOC(=O)CC(NC(=O)c1cc2ccccc2oc1=O)c1cccc([N+](=O)[O-])c1 (configuration not stated),i,-2%
O=C(OCC1CCCO1)c1ccc2c(c1)N(Cc1ccccc1F)C(=O)c1ccccc1S2(=O)=O (configuration not stated),9%,0%
CCCCN(CC)CCNc1ncnc2onc(-c3ccc(Cl)cc3)c12,3%,5%
CCN1C(=O)[C@H]2[C@@H](c3ccc(-c4cc(C(C)=O)cs4)cc3)N[C@@](Cc3ccccc3)(C(=O)OC)[C@H]2C1=O,-8%,-22%
O=C1Cc2ccccc2C(=O)N1CCc1ccccc1,-18%,-5%

# Fetched by compound from the list above (seven):
SMILES,Vaccinia mCherry,VACV Venus inh
CCOC(=O)CC(NC(=O)c1cc2ccccc2oc1=O)c1cccc([N+](=O)[O-])c1 (configuration not stated),i,-2%
CCCCN(CC)CCNc1ncnc2onc(-c3ccc(Cl)cc3)c12,3%,5%
N#Cc1c(N2CCNCC2)nc(-c2ccco2)c2c1CCCC2,-1%,-6%
O=C(OCC1CCCO1)c1ccc2c(c1)N(Cc1ccccc1F)C(=O)c1ccccc1S2(=O)=O (configuration not stated),9%,0%
CCOC(=O)N1CCN(C(=O)CS(=O)(=O)c2cn(Cc3ccccc3C)c3ccccc23)CC1,-11%,-5%
O=C(Oc1ccc(Br)cc1C(=S)N1CCCC1)c1ccccc1F,-26%,-1%
COc1ccc(S(=O)(=O)N2CCCOC2CNC(=O)C(=O)NCCCN2CCOCC2)cc1 (configuration not stated),i,-15%

# Next part
SMILES,Vaccinia mCherry,VACV Venus inh
CCc1ccc(C2=C(C)C(N3CCC(C(=O)Nc4ccc(F)cc4)CC3)=NS2(=O)=O)cc1,-18%,-25%
COc1ccc(OC)c(Nc2ncc3c(n2)CCN(Cc2cc(OC)c(OC)c(OC)c2)C3)c1,-10%,-2%
O=C(NCc1cccnc1)c1cc(C2CCCN(C(=O)c3ccc4c(c3)CCO4)C2)on1 (configuration not stated),1%,-5%
O=C(NCC1CCCO1)C(c1cccnc1)N(C(=O)Cc1cccs1)c1ccccc1 (configuration not stated),-11%,-4%
Cc1ccc(C2C(C#N)=C(N)Oc3nc(-c4ccccc4)[nH]c32)o1 (configuration not stated),-14%[1.46 µM],-6%
O=C(CN(c1ccccn1)S(=O)(=O)c1ccc(F)cc1)Nc1ccccc1,i,-7%
Cc1c(C)n(C)c2ccc(C(=O)NCCc3ccc(Cl)cc3)cc12,-12%,-2%
Cc1ccccc1-c1nnc(SCC(=O)N2CCCc3ccccc32)o1,-11%,-2%
O=C(c1cc2ccccc2oc1=O)N(Cc1ccco1)C1CCS(=O)(=O)C1 (configuration not stated),-8%[1.46 µM],-10%
CC(C(=O)N1CCCCC1)N(C)CC(=O)Nc1ccc(F)c(F)c1F (configuration not stated),-18%,1%
O=C(CSc1ccc(Cl)cc1)Nc1ccc(C2SCCS2)cc1,-12%,-29%
Cn1c(CO)cnc1S(=O)(=O)Cc1ccc(Cl)cc1,i,-8%
CCCn1cc(SCC(=O)Nc2nnc(C)s2)c2ccccc21,?,-5%
CCN(C(=O)Cn1c(=O)n(CC2CCC(C(=O)NC)CC2)c(=O)c2sccc21)c1ccccc1 (configuration not stated),-4%,-7%
O=C(c1cccc2ccccc12)C1CCCN(C(=O)CCN2CCCO2)C1 (configuration not stated),-8%,-10%
Cc1ccc(CNC(=O)c2oc3ccc(S(=O)(=O)N4CCOCC4)cc3c2C)cc1,-8%,-22%
C[C@@H]1CC=C[C@H]2[C@H]1C(=O)N(Cc1ccccc1)[C@H]2c1ccoc1,-21%,-29%
CN(CC(=O)NC(=O)NCc1ccccc1)Cc1ccc(Cl)c(Cl)c1,-22%,-11%
Cc1nn(-c2ccccc2)c2sc(C(=O)Nc3cccc(O)c3)cc12,?,-23%
CC(C)NC(=O)c1csc([C@@H]2O[C@H](CO)[C@H](O)[C@H](O)[C@H]2O)n1,20%,-1%
CCOC(=O)C(C)On1c(-c2ccc(Cl)cc2)nc2ccc([N+](=O)[O-])cc21 (configuration not stated),-7%[1.46 µM],?
COC(=O)c1ccc(NC(=O)c2nc(S(=O)(=O)Cc3ccccc3F)ncc2Cl)cc1,?,?
CCOC(=O)Cc1nnc(NC(=O)CC)s1,nt,5%
CC1(C)SC(=S)N(/N=C/c2ccccc2O)C1N(O)C(=O)Nc1ccccc1 (configuration not stated),i,-21%
CCc1nc(SCC(=O)c2ccccc2)c2c(=O)n(C)c(=O)n(C)c2n1,-5%,-7%
O=C1OCC=C1NNC(=O)c1cccnc1,i,1%
Cc1ccc(CNc2nc3c(S(=O)(=O)c4ccc(C)c(C)c4)nnn3c3ccc(Cl)cc23)cc1,-7%,?
CC(=O)c1ccc(N2CCN(C(=O)CNS(=O)(=O)c3ccc4c(c3)OCCCO4)CC2)c(F)c1,-12%,-14%
Cc1ccc(NC(=S)N2CCC(NC(=O)c3ccco3)CC2)cc1C,-6%,-15%
CC(/C=N/NC(=O)c1nnn(-c2nonc2N)c1CN(C)C)=C\c1ccco1,-16%,-12%

# Profiles, looked up by structure. Screens in order: Vaccinia mCherry | VACV Venus inh
# O=C1OCC=C1NNC(=O)c1cccnc1 in the list: i | 1%
# C[C@@H]1CC=C[C@H]2[C@H]1C(=O)N(Cc1ccccc1)[C@H]2c1ccoc1 in the list: -21% | -29%

# Remaining list, next part.
SMILES,Vaccinia mCherry,VACV Venus inh
Cc1ccc(CNC(=O)c2ccc(N3CCc4ccccc43)c([N+](=O)[O-])c2)cc1,-21%,-14%
COc1c(N2CCN(C(=S)Nc3ccc(F)cc3)C(C)C2)c(F)cc2c(=O)c(C(=O)O)cn(C3CC3)c12 (configuration not stated),nt,-12%
CC12CC3CC(C)(C1)CC(C(=O)Nc1nncs1)(C3)C2,-15%,-14%
O=C(CCn1cccc1)NC1CCCc2ccccc21 (configuration not stated),-27%,-19%
Cc1ccc(S(=O)(=O)N2CCN(C(=O)CCn3cncn3)CC2)cc1C,-13%,-10%
N#Cc1cc(C(=O)c2cc(Br)ccc2O)cn(C2CC2)c1=O,nt,-9%
O=C(NCc1ccccc1Cl)C1CCN(C(=O)c2sccc2-n2cccc2)CC1,-7%,-29%
CC1=CC(C)C(=O)N(C)C(C)=C1 (configuration not stated),i,-4%
COc1ccccc1CC(=O)N1CCCc2ccccc21,nt,-15%
COc1ccc(S(=O)(=O)N(C)c2ccc(C(=O)N3CCCCC3)cc2)cc1,-2%,-12%
COc1cccc(NC(=S)NN=C2CCC(C(C)(C)C)CC2)c1 (configuration not stated),i,-9%
CCn1c(C)nc2cc(C#N)ccc21,2%,-4%
O=S1(=O)C=C[C@@H](COCc2ccccc2)N1Cc1ccc(Br)cc1,12%,3%
O=C(NCCc1ccc(Cl)cc1)C1CCN(C(=O)N2CCOc3ccccc32)CC1,i,-28%
CCCCCCCCCCCCCCCC(O)C[N+](C)(C)CCO (configuration not stated),11%,-23%
Oc1cc(O)c2c(c1)OC(c1cc(O)c(O)c(O)c1)C(O)C2 (configuration not stated),-13%,2%
COC(=O)Cc1c(C)c2ccc(OCC(=O)N3CCC(C)CC3)c(C)c2oc1=O,-19%,-17%
CC(NC(=O)COC(=O)C1CCN(c2ccc(C(F)(F)F)cn2)CC1)c1ccc(Br)cc1 (configuration not stated),-14%,-21%
CC1(C)CC2(CC(C)(C)N1)OC(=O)N1CCc3ccccc3C12C (configuration not stated),-3%,-3%
Cc1ccc(NC(=O)C(NCc2ccccn2)c2ccccc2)cc1 (configuration not stated),i,-16%
CC(C)(CC(=O)O)Cc1nc(-c2ccc(Cl)cc2)no1,i,2%
CCCn1c(SCC(=O)N2CCCC(C)C2)nnc1-c1cccnc1 (configuration not stated),i,0%
COc1ccc(CCNC(C)=O)cc1,nt,2%
O=C(COC(=O)CNC(=O)c1cccc(Br)c1)Nc1nnc(-c2ccccc2)o1,-10%,1%
O=C(/C=C\Nc1ccc2c(c1)OCO2)c1ccccn1,-18%,-12%
O=C(O)C1Cc2ccccc2CN1C(=O)COc1ccc(Cl)cc1Cl (configuration not stated),-4%,1%
CC1=C(c2ccc(F)cc2)S(=O)(=O)NC1=NCc1ccccc1Cl,-17%,-10%
COC(=O)C1C(=O)NC(SC)=C(C#N)C1c1ccccc1 (configuration not stated),nt,-18%
Nc1nonc1-n1nnc(C(=O)N/N=C/c2ccc(F)cc2)c1-c1ccc2c(c1)OCO2,-17%,-13%
COc1ccc(-c2csc(-c3ccc(C(=O)O)cc3)n2)cc1,-3%,-11%
Cc1cc(C(=O)OCC(=O)Nc2ccc(S(N)(=O)=O)cc2)c2ccccc2n1,i,-10%
COc1ccc(NC(=O)C(Cc2ccccc2)n2cccc2)cc1OC (configuration not stated),-11%,3%&-14%
O=C(Nc1ccc(Cl)c(C(F)(F)F)c1)C(Cc1ccccc1)NS(=O)(=O)c1cccc2nsnc12 (configuration not stated),-22%,?
O=C(CNC(=O)c1ccccc1Cl)OCC(=O)N1CCc2ccccc21,-17%,-7%
COc1ccc(NC(=O)CCSCCc2ccccn2)cc1OC,-15%,-7%
CCOC(=O)C1CSC(CC(=O)Nc2ccc(Cl)cc2)C(=O)N1 (configuration not stated),-3%,-11%
COc1cc(C(N)=O)cc(Br)c1OC,nt,-8%
O=C(COC(=O)C1CCCO1)Nc1nc(-c2ccc(F)cc2)cs1 (configuration not stated),-9%,0%
CNC(=S)N(Cc1ccc(Cl)cc1)Cc1cccs1,-19%,-3%
CCOC(=O)N1CCN(S(=O)(=O)N2CCCC(C(=O)NCc3ccc(OC)cc3)C2)CC1 (configuration not stated),-11%,-1%
COc1ccc(Cl)cc1C(=O)Nc1ccccc1N1CCN(C)CC1,-15%,-26%
Cc1ccccc1/C=N/n1c(COc2ccccc2)n[nH]c1=S,i,1%
CCOC(=O)NC(=O)C(=CNc1ccccc1OC)C(=O)NC(=O)OCC,-2%,-7%
COc1ccc(C2=Nc3ccccc3NC(=O)C2N(C(=O)c2cc3ccccc3[nH]2)c2ccccc2)cc1 (configuration not stated),23%,10%
Cc1ccc(-n2nnnc2CNC(=O)C(=O)c2c[nH]c3ccccc23)cc1C,-22%,-13%
CC(=O)NCC1(c2ccccc2)CCN(CC2COc3ccccc3O2)CC1 (configuration not stated),2%,-10%
COc1ccccc1OCC(=O)OCn1c(SC)nnc(C)c1=O,-7%,-1%
CCCCn1c(=O)[nH]c(=O)c2c1nc(-c1ccc(OC(F)F)c(OC)c1)n2C,i,0%
COc1cc2c(NC3CCN(C)CC3)nc(N3CCCN(C)CC3)nc2cc1OCCCC(C)C,?,13µM*
Cc1ccc(C(=O)N/N=C/c2ccc(-c3ccc(Br)cc3[N+](=O)[O-])o2)o1,-14%,-7%
Cn1cccc1Cc1nnc(SCC(=O)Nc2cccc(F)c2)n1CCc1ccccc1,-1%,-4%
CC1Cc2ccccc2C(=O)N1 (configuration not stated),-13%,-11%
CNC(=S)N1N=C(c2ccc(OC)cc2)CC1c1ccc(N(C)C)cc1 (configuration not stated),-19%,-9%
COc1ccc(S(=O)(=O)N(C)CC(=O)N2CCC(C(N)=O)CC2)cc1,i,-14%

# A stretch from further up, as a working copy:
SMILES,Vaccinia mCherry,VACV Venus inh
COc1cc2c(NC3CCN(C)CC3)nc(N3CCCN(C)CC3)nc2cc1OCCCC(C)C,?,13µM*
Cc1ccc(C(=O)N/N=C/c2ccc(-c3ccc(Br)cc3[N+](=O)[O-])o2)o1,-14%,-7%
Cn1cccc1Cc1nnc(SCC(=O)Nc2cccc(F)c2)n1CCc1ccccc1,-1%,-4%
CC1Cc2ccccc2C(=O)N1 (configuration not stated),-13%,-11%
CNC(=S)N1N=C(c2ccc(OC)cc2)CC1c1ccc(N(C)C)cc1 (configuration not stated),-19%,-9%
COc1ccc(S(=O)(=O)N(C)CC(=O)N2CCC(C(N)=O)CC2)cc1,i,-14%
